# Compound activity: PubChem, several laboratories
# ALR H2O2 inh: inhibitors of human sulfhydryl oxidase ALR; P55789; purified ALR, DTT oxidation, H2O2 HRP-luminol luminescence; inhibition, % (concentration not given with the values); 290,000 tested, 3.8% active;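 active = mean and each replicate at 75% or more; inconclusive = only one of the two met; inactive = neither met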;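 also: stock transfer was 7.5 nL into about 7.5 µL; 0% = neutral wells and 100% = wells with inactivated enzyme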
# Target sequence (P55789 whole entry, looked up): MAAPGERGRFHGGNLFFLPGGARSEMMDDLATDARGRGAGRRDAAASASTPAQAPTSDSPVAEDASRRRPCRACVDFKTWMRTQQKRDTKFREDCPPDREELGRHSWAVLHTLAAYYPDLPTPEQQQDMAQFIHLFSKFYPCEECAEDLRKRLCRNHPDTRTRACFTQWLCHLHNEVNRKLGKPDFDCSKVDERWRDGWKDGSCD
# HNF4A DNA FP: change in binding of human HNF4 alpha to DNA; 360,000 tested, 0.3% active; activity change, % at 10 µM; P41235; HNF4a-FITC DNA binding, fluorescence polarization, 1 h; in the data active = activity change above about 30%, passing the limit was not always enough;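 also: controls were the assay level and a saturating level of protein; the project sought stronger binding though the title names inhibitors; some compounds called inactive have numbers as strong as hits; positive values seem to mean higher polarization but the record does not say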
# Target sequence (P41235 whole entry, looked up): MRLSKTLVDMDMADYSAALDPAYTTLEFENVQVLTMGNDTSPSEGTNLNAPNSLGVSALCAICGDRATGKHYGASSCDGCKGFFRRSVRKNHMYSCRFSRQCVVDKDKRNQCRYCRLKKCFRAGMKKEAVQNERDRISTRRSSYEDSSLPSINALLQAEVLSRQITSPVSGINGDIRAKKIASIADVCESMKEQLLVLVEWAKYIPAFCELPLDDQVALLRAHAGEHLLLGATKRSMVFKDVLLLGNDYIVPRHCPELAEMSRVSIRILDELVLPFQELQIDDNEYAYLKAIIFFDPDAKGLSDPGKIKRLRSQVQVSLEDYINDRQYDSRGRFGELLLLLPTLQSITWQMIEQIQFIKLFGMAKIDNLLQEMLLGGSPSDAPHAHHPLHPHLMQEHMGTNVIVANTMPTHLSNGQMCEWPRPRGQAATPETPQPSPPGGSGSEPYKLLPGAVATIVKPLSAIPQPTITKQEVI
# Vif TR-FRET: inhibitors of Vif binding to APOBEC3G peptide, primary screen, biochemical, TR-FRET, GST-Vif 1-94, biotin-A3G peptide, dose response retest (AID 1117319). TR-FRET GST-Vif / biotin-A3G peptide binding; higher % means a stronger effect; test concentration not given here; strong numbers were not always called active. 260,000 tested, 0.57% active. inhibition, %, or IC50 in µM where a hit was titrated;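 active = above the screen mean plus three standard deviations and confirmed in dose response; inconclusive = results disagree or hit not tested in dose response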;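 also: Vif residues 1-94 fused to GST binding biotinylated APOBEC3G peptide 110-148; 0% = full assay without inhibitor and 100% = GST in place of GST-Vif; retest series ran down from 100 µM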
# RanGTP-Impb inh: inhibitors of RanGTP-importin-beta interaction, primary screen, biochemical, FRET, CFP-Ran, YFP-importin-beta, homogeneous | inhibition, % (concentration not given with the values) | cell-free CFP-Ran/YFP-importin-beta FRET ratio | 300,000 tested, 1.1% active;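 active = most replicates above 15%; inconclusive = exactly half above 15%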;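 also: 0% = DMSO wells and 100% = Ran loaded with GDP instead of GTP; wells of about 40 µL received 100 nL stock; the first replicate is given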
# Beta2AR agonist: agonists of human beta-2 adrenergic receptor inducing internalization; 340,000 tested, 0.43% active; response, % (concentration not given with the values); P07550; Am2.2-beta2AR cells, FAP receptor internalization, flow cytometry; reference of the scale not given here;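 active = response above a set limit, near 3 SD of response in nonfluorescent compounds, cut at about 42% in these data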;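 also: stock transfer was 100 nL into about 11 µL; a reference agonist was the positive control; negative values mostly stem from fluorescent compounds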
# Target sequence (P07550 whole entry, looked up): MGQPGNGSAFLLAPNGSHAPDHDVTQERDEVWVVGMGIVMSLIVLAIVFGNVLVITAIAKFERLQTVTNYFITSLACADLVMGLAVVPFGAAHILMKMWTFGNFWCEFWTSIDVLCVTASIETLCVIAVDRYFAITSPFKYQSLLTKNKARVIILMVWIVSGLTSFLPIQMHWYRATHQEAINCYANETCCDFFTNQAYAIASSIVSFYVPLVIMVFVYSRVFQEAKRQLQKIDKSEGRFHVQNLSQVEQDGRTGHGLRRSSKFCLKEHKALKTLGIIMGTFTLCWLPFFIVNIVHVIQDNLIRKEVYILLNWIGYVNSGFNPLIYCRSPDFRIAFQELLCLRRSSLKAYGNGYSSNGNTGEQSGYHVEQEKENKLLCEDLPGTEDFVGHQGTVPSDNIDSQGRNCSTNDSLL
# LANA-H2B inh: blocks KSHV LANA binding to histone H2A/H2B. Q9QR71. cell-free LANA-H2A/H2B peptide, fluorescence polarization. inhibition, % (concentration not given with the values). 320,000 tested, 0.6% active; in the data active = inhibition mostly above about 10%, no sharp cut-off; inactive = mostly below about 6.7%;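 also: stock transfer was 7.5 nL into about 10 µL; 0% = median of vehicle wells and 100% = median of positive control wells; one replicate is shown; the record names a cut of 25% in any replicate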
# Calb FLC: C. albicans growth modulation with fluconazole; growth inhibition, % (concentration not given with the values); 300,000 tested, 0.57% active; C. albicans CaCi-2 (fluconazole-resistant clinical isolate) + fluconazole, Alamar Blue growth, 48 h; AID 1979;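 active = most replicates above 75%; inconclusive = exactly half above 75%; inactive = most below 75%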;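 also: all wells also contain fluconazole at 8 µg/ml as a sub-toxic cotreatment; 0% = median of DMSO wells and 100% = median of geldanamycin control wells; wells of about 8 µL received 7.5 nL stock; the first replicate is given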
# Active calls of the source: *; ? = inconclusive; / = not tested or not shown; & = joins results of further samples.
SMILES,ALR H2O2 inh,HNF4A DNA FP,Vif TR-FRET,RanGTP-Impb inh,Beta2AR agonist,LANA-H2B inh,Calb FLC
Oc1ccccc1/C=N/n1c(-c2ccccc2)n[nH]c1=S,98*,-0.4,0%,-1.3,-1,-0.1,2
C(=N\Nc1nn[nH]n1)/c1ccccc1,7,-0.5,?,-3.0,6,-1.1,19
Cc1ccccc1CC1S/C(=N/N=C/c2ccco2)NC1=O (centres undefined),/,/,/,-0.2,/,-0.6,-8
O=C(c1cc(-c2ccccn2)nc2ccccc12)N1CCN(c2ncccn2)CC1,-13,4.1,/,0.2,-12,0.8,-3
CCOC(=O)C1=C(C)NC(=S)NC1c1cc(C)sc1C (centres undefined),-1,-4.0,-3%,-2.8,3,7.7,-2
O=c1c2c(nc3c(-c4ccccc4)c[nH]n13)CCCC2,17,1.2,6%,1.8,-4,2.1,36
Cc1ccsc1CN(C)C(=O)CN1C(=O)NC2(CCCCC2C)C1=O (centres undefined),-2,0.2,6%,/,1,7.8,/
O=C(Nc1ccc(C(F)(F)F)cc1)c1ccc2ncsc2c1,-3,6.4,5%,1.6,-2,-4.3,23
Cc1onc(-c2ccccc2)c1C(=O)N1CCCSC1=Nc1ccccc1,-9,-3.5&-0.1,-5%&4%,-5.0,6&-2,0.2,-3
Cc1ccc(OCCC(=O)OCc2csc(CC(=O)Nc3ccccc3C)n2)cc1,1,0.6,/,-1.5,1,-3.4,2
COc1cc(C2Nc3cc(Cl)c(S(N)(=O)=O)cc3S(=O)(=O)N2)ccc1OCc1ccccc1 (centres undefined),-13,0.7,4%,5.6,11,0.0,-3
COc1cc2oc3cc(C#Cc4ccc(N)cc4)ccc3c(=O)c2cc1OC,-12,14,/,-3.5,7,-2.3,4
Cc1nc2ccc(S(=O)(=O)N3CCCCC3)cc2s1,-12,-3.0,/,2.0,-4,-3.3,-3
CN(CC(=O)Nc1ccc(F)cc1)C(=O)c1cc2c(s1)CCCCC2,-10,2.0,-7%,0.4,3,-5.3,-2
Cc1cccc(C2=NN(c3ccc(Br)cc3)[C@@H](C(=O)N3CCOC3=O)[C@@H]2c2ccc(Cl)cc2)c1,/,1.4,-10%,/,-5,/,/
CCCCOC(=O)CCNc1n[nH]c(=O)[nH]c1=O,/,2.1,20%,0.4,-2,-2.7,3
CC1CC1C(=O)OCC(=O)NC(=O)c1ccccc1 (centres undefined),0,8.6,-1%,-1.4,6,0.2,-3
CN(C(=O)COC(=O)c1ccc(NS(=O)(=O)c2cccs2)cc1)C1CCCCC1,-2,2.4,/,-3.5,-5,-0.3,23
CCC1Oc2ccc(C)cc2N(CC(=O)NCC2CCCO2)C1=O (centres undefined),-2,-0.1,/,?,3,-0.9,-4
COc1ccc(NC(=O)COC(=O)c2cc([N+](=O)[O-])ccc2N2CCOCC2)cc1,-7,0.6,3%,0.7,-3,2.2,5
C=CCNC(=S)N1CCOCC1,-3,-3.0,7%,-0.9,-2,2.7,-13
CCCNC(=O)CCCCn1c(=S)[nH]c2c([nH]c3ccc(OC)cc32)c1=O,/,2.4,?,-4.0,-1,-0.8,-2
COc1ccccc1CN1CC(C(=O)NCCn2ccc(C)n2)CCC1=O (centres undefined),/,4.3,/,0.0,-8,0.0,-7
C=C1CCN([C@@H](CC(C)C)C(=O)Nc2ccc(OC)cc2)S(=O)(=O)c2ccccc21,-13,15,/,1.5,1,5.1,1
COC(=O)COc1ccc(-c2ccccc2)cc1C=O,0,3.5,-2%,2.7,0,7.2,-2

# Carrying on:
SMILES,ALR H2O2 inh,HNF4A DNA FP,Vif TR-FRET,RanGTP-Impb inh,Beta2AR agonist,LANA-H2B inh,Calb FLC
CC(C)CC(=O)Nc1nnc(SCC(=O)NC2CCCCC2)s1,-5,1.1,-3%,8.3,-7,8.2,-2
CC(C)=CC(=O)N1CCC(n2nccc2NC(=O)CCc2ccccc2)CC1,0,-1.2,/,0.4,-4,6.2,1
CC1CC(c2ccccc2)n2nc(NC(=O)c3cccs3)nc2N1 (centres undefined),1,0.9,-3%,-1.2,-4,3.1,-1
Cc1cccc(C(=O)Nc2ccc(C(=O)/C=C/c3ccncc3)cc2)c1,19,5.0,/,-2.6,60*,-1.9,-4
Cc1cnc(CNC(=O)c2ccc3oc(Cc4ccccc4)nc3c2)[nH]1,-6,2.7,2%,2.9,16,2.4,5
Cc1cc(C)c(C(=O)CSc2nc(C)cc(=O)[nH]2)c(C)c1,4,2.2,/,-0.1,13,1.3,10
CNC(=O)c1c(NC(=O)CCS(=O)(=O)c2ccc(C)cc2)sc2c1CCN(C(=O)OC)C2,-7,3.1,1%,4.8,-1,3.8,14
CS(=O)(=O)N(CC(=O)Nc1cc(Cl)ccc1Cl)c1ccccc1,-1,4.7,0%,7.0,-10,1.0,-1
CC(O)C1C(=O)OC2(C)CC(C)(C)NC(=S)N12 (centres undefined),/,-0.3,1%,0.3,9,-4.7,-1
COC(=O)c1ccccc1NC(=S)N(Cc1ccc2c(c1)OCO2)Cc1cc2ccc(C)cc2[nH]c1=O,1,-2.7,/,?,-5,7.8,-8
Cc1nc(SCc2c(F)cccc2Cl)c2c(=O)n(C)c(=O)n(C)c2n1,/,0.8,1%,1.0,10,4.3,1
CC(C)(C)OC(=O)N1CCC(CC2CC(c3ccc(Cl)cc3)=NO2)(C(=O)NCC2CCCCC2)CC1 (centres undefined),8,-1.8,/,8.3,1,3.6,17
COc1ccc(CN(CC(=O)NCc2ccco2)C(=O)CCC(=O)Nc2ccccn2)cc1,-10,-4.2,-7%&-4%,5.2,-9,0.4,23
O=C(N/N=C/c1ccccc1OCC(=O)N1CCCC1)C(=O)Nc1ccccc1F,-3,-1.7,3%,-1.8,4,-1.3,-4
CC(C)c1ccc(N(C(=O)c2snc(C(N)=O)c2N)C(C(=O)NCC2CCCO2)c2ccc(N(C)C)cc2)cc1 (centres undefined),/,-1.1,/,-1.2,-2,/,28
COc1ccc2c(-c3ccccc3)cc3nnnn3c2c1,-12,-1.2,-7%,1.5,-5,-5.3,8
O=C(COC(=O)Cc1cccs1)Nc1ccc(F)c(F)c1F,4,3.1,7%,-2.1,0,0.1,-2
Cc1c(-c2ccccc2)[n+](=O)c(-c2ccco2)c(C)n1[O-],73,2.3,13%,?,-6,1.7,-8
Cc1cc(C(F)(F)F)nc(CCNC(=O)C2CCC(=O)N(Cc3cccc(F)c3)C2)n1 (centres undefined),-1,-0.7,/,5.3,-7,-2.8,6
CC(C)CC1C(C#N)=C(N)OC2=C1C(=O)CC(c1ccccc1)C2 (centres undefined),12,-0.9,/,1.0,3,0.2,-12
Cc1c(Br)c(=O)oc2c(Br)c(O)c(O)cc12,98*,-42,/,26*,4,0.6,18
O=C(OCC(=O)N1CCc2ccccc21)c1ccc[nH]c1=O,-4,0.4,/,-1.3,2,-2.4,-6
CCn1c(N)nc2c1c(=O)n(C)c(=O)n2C,32,-0.8,28%,0.8,9,-2.4,0
Cc1ccc(C(=O)Cc2ccccc2)cc1,/,-2.5,2%,/,-7,/,/
CCN1CCN(c2ccc(NC(=O)COc3ccc(Cl)cc3C)cc2)CC1,/,2.5,/,/,-10,-3.0,/

# 3 compounds already listed, ordered by molecular weight, ascending.
SMILES,ALR H2O2 inh,HNF4A DNA FP,Vif TR-FRET,RanGTP-Impb inh,Beta2AR agonist,LANA-H2B inh,Calb FLC
CC(C)CC(=O)Nc1nnc(SCC(=O)NC2CCCCC2)s1,-5,1.1,-3%,8.3,-7,8.2,-2
CCN1CCN(c2ccc(NC(=O)COc3ccc(Cl)cc3C)cc2)CC1,/,2.5,/,/,-10,-3.0,/
O=C(N/N=C/c1ccccc1OCC(=O)N1CCCC1)C(=O)Nc1ccccc1F,-3,-1.7,3%,-1.8,4,-1.3,-4

# Other records.
SMILES,ALR H2O2 inh,HNF4A DNA FP,Vif TR-FRET,RanGTP-Impb inh,Beta2AR agonist,LANA-H2B inh,Calb FLC
COc1ccc(N(CC(=O)NCc2ccccn2)S(=O)(=O)c2ccccc2[N+](=O)[O-])c(OC)c1,-8,4.1,5%,-3.0,8,3.1,1
N#Cc1cc2c(nc1SC1CCCCC1O)CCCC2 (centres undefined),8,-1.8,-2%,3.3,-23,-0.3,8
CCCC[C@@H](CNC)NC[C@H](Cc1ccc(O)cc1)NCCc1ccc(OCC)cc1,8,14,/,-2.7,3,6.2,-15
Cc1cc2oc(=O)cc(CN3CCN(S(=O)(=O)c4cccs4)CC3)c2cc1C,-14,4.2,-9%,0.6,1,-0.7,-5
CC1CCCC(NC(=O)COC(=O)c2cccc(S(=O)(=O)N3CCCCC3)c2)C1C (centres undefined),-7,3.8,-10%,/,10,1.7,/
CCn1c(CSCc2ccc(C)cc2)nnc1SCC(=O)NCc1ccccc1,7,-0.9,2%,7.8,-8,-2.0,-4
COc1cccc(C(=O)NCCS(=O)(=O)NCc2ccc(Cl)cc2)c1,-1,-2.4,3%,2.8,-15,-5.0,9
CCC(=O)N1CCC2(CC1)Oc1ccc(Cl)cc1C(=O)C21CC(c2ccccc2)=NO1 (centres undefined),0,-3.5,-3%,2.2,0,-3.6,3
Cc1ccc2c(c1)c(N=NC(N)=O)c(O)n2C,1,-1.4,/,-2.3,-6,0.3,2
CC(C)C(=O)N1CCN(c2ccc([N+](=O)[O-])cc2Cl)CC1,/,-1.0,/,1.5,-7,/,-6
O=C(CSc1n[nH]c(=O)[nH]c1=O)Nc1ccc(C(=O)O)cc1,-4,-3.0,/,-1.6,1,5.9,-7
CCc1noc(C)c1C(=O)OCC(=O)N(CC)c1c(N)n(Cc2ccccc2)c(=O)[nH]c1=O,/,2.2,1%,1.9,-3,-1.7,7
COc1ccc(-n2nnnc2CNC(=O)C(=O)c2c[nH]c3ccccc23)cc1,-18,3.9,-4%,5.5,9,6.5,7
CCN1CCN(C(c2ccccc2OC)c2nnnn2C2CCCCC2)CC1 (centres undefined),-4,-1.0,19%,0.1,3,-4.0,-30
Cc1ccc2c(c1)[C@H]1[C@H](CO2)[C@H](c2ccccc2)[C@]2(C)C(=O)N(Cc3ccc(F)cc3)CC(=O)N12,2,-39,/,/,1,3.5,/
COc1cc(CNC(=O)c2ccc3oc(C(C)C)nc3c2)cc(OC)c1,-3,5.9,/,3.3,3,-1.6,12
CC(Cc1ccccc1)NC(=O)c1ccc([N+](=O)[O-])cc1 (centres undefined),-20,2.9,/,3.9,-1,-2.0,-18
O=C(COc1ccccc1)NCC1CCCO1 (centres undefined),-16,3.2,4%,2.0,6,-0.8,3
CCn1ncc(Cl)c1C(=O)Nc1cc([N+](=O)[O-])ccc1OC,-6,1.9,-4%,-2.3,-7,0.4,-16
CC(C(=O)Nc1ccncc1)(c1ccccc1)c1ccccc1,-2,-0.5,/,-0.8,-13,-3.3,7
O=C(c1ccc(-c2cc(Cl)ccc2Cl)o1)N1CCOCC1,/,2.0,3%,?,-12,2.0,6
CCCCNc1cnn(-c2ccccc2)c(=O)c1Cl,/,3.2,/,1.4,-5,-1.5,10
COC(=O)c1c(C)oc(C)c1S(=O)(=O)NC(c1ccccc1)c1ccccc1,-3,-0.4,1%,1.3,-5,1.0,-3
CCCOc1ccc(C(O)(CCN2CCCCC2)c2ccccc2OC)cc1 (centres undefined),-15,-3.1,2%,0.9,-6,6.9,-14
CCOC(=O)C1(C)NC(c2ccccc2F)C2C(=O)N(CC)C(=O)C21 (centres undefined),4,0.7,-10%,-1.0,4,3.3,-1
Cc1ccc(S(=O)(=O)N2CCN(C(=O)COC(=O)CSc3ccc(C)c(C)c3)CC2)c(C)c1,/,-3.7,0%,/,2,/,/
Cc1cccc(NC(=O)CN2CCN(C(=O)C3CCCO3)CC2)c1C (centres undefined),-1,3.0,-3%,1.6,0,4.3,-7
C[C@H]1CN([C@@H](C)CO)C(=O)c2cccc(NS(=O)(=O)c3ccc(F)cc3)c2O[C@H]1CN(C)S(=O)(=O)c1cn(C)cn1,/,-0.7,-2%,/,-2,4.9,/
